# Autofluor counter: flagged as autofluorescent in microsphere protease counterscreen; compound autofluorescence counterscreen, microsphere flow cytometry; stronger effect = higher value; fluorescence intensity (test concentration not listed); hit rate 3.1% among 360,000; AID 624483;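 active = at least 3 SD above the mean of all compounds, about 16000 in these data; inconclusive = too few beads counted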;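 also: 100 nL of 1 mM stock went into each well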
# Mtb hypoxia rep: reduces hypoxia-regulated biosensor signal in M. tuberculosis; M. tuberculosis hypoxia-regulated fluorescent reporter, fluorescence; fluorescence inhibition, % (no concentration beside the values); hit rate 0.1% among 300,000;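 active = 35 to 45% if threefold the growth effect, above 45% if 1.5-fold the growth effect; inactive = the rest, general growth blockers included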;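 also: wells of about 50 µL received 100 nL stock; 0% = vehicle wells and 100% = reference inhibitor wells; whole bacteria with a GFP reporter of the hypoxia response; strong numbers were not always called active; many hits fall short of the cut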
# Sa RN4220 lethal: S. aureus RN4220 growth inhibition. inhibition, % (test concentration not listed). AID 1259311. OD600, 16 h. hit rate 0.33% among 330,000;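 active = z-score of -3 or lower and OD600 up to 0.18 on both plates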;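 also: plate controls were untreated cells for no effect and reference antibiotic for full effect; stock transfer was 100 nL into about 80 µL; one replicate is shown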
# Sa ugtP lethal: compounds lethal to S. aureus RN4220 ugtP deletion mutant. OD600 growth, 16 h; some inactives read as strong as hits. hit rate 0.54% among 330,000. growth inhibition, % (test concentration not listed). AID 1259309;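 active = z-score under -3 and OD600 up to 0.15 on both plates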;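 also: plate controls were untreated wells for no effect and antibiotic for full effect; wells of about 80 µL received 100 nL stock; the first replicate is given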
# BJeLR lethal: kills HRASV12-expressing BJeLR cells; inhibition, % (no concentration beside the values); AID 1554; BJeLR (HRASV12) viability, CellTiter-Glo ATP luminescence, 48 h; reference of the scale not given here; hit rate 0.17% among 300,000;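 active = replicate mean above 50%; inconclusive = above 50% but judged a plate artefact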;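 also: 50 nL library stock added to about 25 µL; numbers are from one replicate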
# PrP UTR inh: suppresses PrP 5' UTR mRNA reporter expression. cell-based PrP 5' UTR mRNA reporter, plate reader. inhibition, % (concentration not given with the values). hit rate 0.35% among 340,000. AID 488862;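 active = every replicate at 50% or more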;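 also: 0 = median of the neutral control wells; tested in H4 reporter cells; numbers are from one replicate; inactives centre near -14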
# Mtb hypoxia rep growth: further read-out of Mtb hypoxia rep, marked with its call; growth inhibition, %; measured here: M. tuberculosis growth (absorbance);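 0% = vehicle and 100% = reference antibiotic; read after six days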
# Starred values were filed as active, the others as inactive; u = inconclusive; x = not tested or not shown. Compounds were not picked by outcome. Share with any hit: about 4%.
SMILES,Autofluor counter,Mtb hypoxia rep,Mtb hypoxia rep growth,Sa RN4220 lethal,Sa ugtP lethal,BJeLR lethal,PrP UTR inh
CCc1ccc(NC(=O)C(C)OC(=O)C2CCC(=O)N2)cc1 (configuration not stated),5889,-2.0,1.8,9.1,5.5,-1.0,-30.7
COc1ccc(NC(=O)CN(C)C(=O)c2cccnc2Sc2ccc(C)c(C)c2)cc1,x,3.0,-3.4,3.5,-3.8,-10.2,-18.8
CCCc1cc(-c2n[nH]c(=S)n2CC(C)C)cs1,2061,4.5,1.7,-0.4,0.5,-1.0,2.7
CCC(C(=O)N1CC2(C)CC1CC(C)(C)C2)N1C(=O)c2ccccc2C1=O (configuration not stated),3201,x,x,-16.0,7.4,0.1,-1.3
C=CC[n+]1c(-c2ccc(C)cc2)csc1Nc1c(C)n(C)n(-c2ccccc2)c1=O,4181,3.2,2.5,1.5,5.9,1.2,-9.3
COc1ccc(N(CC(=O)NCc2ccc(Cl)cc2)S(=O)(=O)c2c(C)noc2C)cc1,5415,-7.4,4.8,-1.6,-5.0,-0.1,-10.2
NC(=O)c1ccsc1NC(=O)COC(=O)c1ccccc1NCc1ccco1,4501,x,x,-3.3,-9.7,3.4,-30.9
CC(NS(=O)(=O)c1ccc(Br)cc1)C(=O)NCc1ccco1 (configuration not stated),3318,7.8,-2.0,2.3,15.9,0.5,-15.0
O=C(CNC(=O)c1ccco1)NN=Cc1ccc(O)c([N+](=O)[O-])c1,x,25.0,18.4,2.8,-1.2,x,x
O=C(O)CN1C(=O)c2ccc(Oc3ccc([N+](=O)[O-])cc3)cc2C1=O,3837,5.9,4.7,1.8,4.5,-19.6,-16.9
NC(=O)c1ccc(NC(=O)COC(=O)c2cc3ccccc3cc2O)cc1,2880,1.9,-0.8,1.5,-0.6,x,24.8
Cc1ccc2c(cnn2C(=O)CCC(=O)N2CCCCC2)c1,4451,-2.3,5.9,3.7,5.3,7.9,-7.1
CC1CCCN(C(=O)c2cccc(S(=O)(=O)N3CCCC3)c2)C1 (configuration not stated),6136,-7.6,10.9,1.3,-1.9,x,-3.3
COc1cc(S(=O)(=O)NCc2ccccc2Cl)ccc1-n1cnnn1,3559,-3.5,-2.3,5.0,-0.9,-3.1,-6.2
CC(OC(=O)c1ccc2ncsc2c1)C(=O)N1CCCC1 (configuration not stated),x,7.4,19.2,2.6,7.6,x,x
COc1ccc(/C=N/n2cnc3scc(-c4cccs4)c3c2=O)cc1OC,2399,x,x,x,x,-2.2,4.7
CC(Sc1ccc(Cl)cc1)C(=O)NNC(=O)c1ccncc1 (configuration not stated),8161,x,x,0.8,0.4,x,-0.8
COc1cc(CCC(=O)OCC(=O)Nc2ccc(F)c(F)c2F)cc(OC)c1OC,3970,17.4,-3.3,-0.7,2.7,-0.3,-17.9
CCO/C([O-])=N/c1sn[n+](C)c1C,x,0.8,1.2,1.5,-0.5,-2.7,-16.4
Cc1ccc([C@H]2C(C(=O)O)=CC[C@@H](c3ccc4c(c3)OCO4)N2S(=O)(=O)c2ccc(C)cc2)cc1,3633,-7.1,-6.8,17.1,3.2,x,0.9
O=C(Nc1ccc(S(=O)(=O)N2CCCC2)cc1)C1COc2ccccc2O1 (configuration not stated),5285,x,x,-5.1,5.0,3.7,-20.3
COC(=O)CCP(=O)(O)Cc1ccccc1CP(=O)(O)CCC(=O)OC,3096,x,x,-0.6,-4.5,1.0,-3.5
CC1CN(C(C)CO)C(=O)c2cccc(NC(=O)Nc3ccc(C(F)(F)F)cc3)c2OC1CN(C)S(C)(=O)=O (configuration not stated),x,-4.0,5.8,-0.7,-11.9,x,x
Cn1cnnc1SCC(=O)c1ccc2c(c1)OCCO2,16723*,7.4,2.6,0.9,2.0,-7.8,-17.6
Cc1ccc(-c2cccc(CN3CCN(C(C)C)C(CCO)C3)c2)o1 (configuration not stated),2623,17.9,7.4,8.1,6.2,-15.4,-27.6
O=C(NCc1cccnc1)c1ccc([N+](=O)[O-])o1,2547,-2.9,13.8,-2.5,30.1,-2.6,-15.9
CCC(=O)N1CCN(c2ccccc2NC(=O)COc2cccc(C)c2C)CC1,6383,6.0,4.9,4.8,10.2,-6.0,-4.5
CCOC(=O)N1CCN(C(=O)c2cn(C)c3ccc(S(=O)(=O)N(CC)CC)cc3c2=O)CC1,2950,9.9,9.1,1.4,3.2,2.0,-5.1
CC(C)[C@H](NC(=O)[C@H]1N2C(=O)c3ccccc3C2SC1(C)C)C(=O)NCc1ccco1 (some centres not stated),u,4.7,-3.2,-0.3,1.6,6.1,-2.0
Cc1ccc(S(=O)(=O)N[C@@H](CC(C)C)C(=O)N2CCC(C(=O)N[C@@H](Cc3ccccc3)C(=O)O)CC2)cc1,3906,x,x,0.7,10.3,-0.5,-14.6
Cc1cccc(C(=O)NC2CCN(C(=O)Nc3ccccc3C)CC2)c1,4275,4.9,-5.0,2.0,9.1,3.2,-26.8
Cc1cc(C)cc(NC(=O)Oc2ccccc2N2CCCCC2)c1,5579,8.7,8.0,4.3,4.5,7.0,-87.4
OCCCNc1nc(-c2ccc(Br)cc2)nnc1-c1ccc(Cl)cc1,2091,0.9,3.6,-1.9,-1.1,-2.3,-13.6
O=C1C2C(c3ccccc3)CC=CC2[C@H](c2cccc([N+](=O)[O-])c2)N1Cc1ccccc1 (some centres not stated),2923,x,x,x,x,2.1,-11.8
CC1CN(S(=O)(=O)c2cccc(C(=O)NCCCn3ccnc3)c2)CC(C)O1 (configuration not stated),2791,15.9,8.0,4.9,2.7,-5.6,-27.4
CC1CCCCC12NC(=O)N(CC(=O)N1CCN(S(=O)(=O)/C=C/c3ccccc3)CC1)C2=O (configuration not stated),9036,-0.6,-3.5,3.6,0.7,x,-23.5
COc1ccc(S(=O)(=O)N(CC(=O)NCc2ccncc2)Cc2ccccc2)cc1,4105,14.2,6.2,3.6,16.2,-14.6,-26.6
COc1cccc(-c2nn(-c3ccccc3)cc2C(=O)Nc2nccs2)c1,3647,x,x,1.4,-4.2,7.4,4.8
COc1ccc(S(=O)(=O)N(C)C)cc1NC(=O)CN1CCN(C(=O)C2CC2)CC1,8650,-0.7,-0.8,4.4,4.0,x,-28.4
CC(Oc1ccc2c3c(c(=O)oc2c1)CCC3)C(=O)NCc1cccnc1 (configuration not stated),5881,3.4,-1.8,6.2,14.3,9.1,-11.2
NC(=O)c1cc2ccncc2c2ccccc12,4053,x,x,x,x,10.4,22.2
N/C(CC(=O)NC1CCCCC1)=N\OCC(=O)Nc1ccc(Cl)c(Cl)c1,5228,9.7,8.8,-0.4,3.3,17.8,-15.7
Cc1cc(Cl)ccc1OC(C)C(=O)NNC(=O)C1CCCCC1C(=O)O (configuration not stated),5142,1.9,-4.1,4.2,12.9,-3.0,-13.7
C[C@H](NC(=O)C1CCN(S(=O)(=O)c2ccccc2)CC1)C(=O)NCc1ccccc1,5498,-15.7,1.0,-2.5,-0.9,1.3,-4.5
Cn1nc(/C=C/c2ccccc2)ccc1=O,4382,4.7,-2.0,7.1,-2.7,-0.1,-60.8
COc1ccc(OC)c(C=NNC(=O)c2cc[n+](Cc3ccccc3)cc2)c1,x,1.8,6.1,1.3,7.8,x,x
COc1ccc(CN2CCN(C(=O)CCC(=O)Nc3nnc(C(F)(F)F)s3)CC2)cc1F,6082,-8.3,-2.7,-5.7,-3.6,0.0,2.0
O=C1CS/C(=N/N=C/c2cccs2)N1,5033,x,x,x,x,-7.4,-18.8
COc1cc(C(=O)NCCOc2cc(C)ccc2C(C)C)cc(OC)c1OC,3891,-4.6,-0.6,2.0,-4.8,14.6,-12.0
O=C(Cn1nc(-c2ccccc2)ccc1=O)Nc1ccc(-n2cnnn2)cc1,4745,8.9,3.5,3.1,5.2,-4.6,-10.6
Cc1ccc(NC(=O)Cn2nnc3ccccc32)c(C)c1,3503,-4.2,-1.5,2.0,-4.4,-1.0,-17.3
COC(=O)c1ccc(COc2ccc3c(c2)CCC3)o1,x,4.0,3.5,5.3,13.8,-17.8,-83.8
CCOc1ccc(CCNC(=O)COC(=O)CSc2ccc(C)cc2)cc1OCC,5537,6.3,3.9,4.2,1.9,x,-29.1
CC(=O)Nc1cccc(NC(=O)c2cc(-c3ccccn3)nc3ccc(Cl)cc23)c1,6684,2.0,-4.9,0.0,4.3,7.2,-14.1
CCc1ccc(NC(=O)CNC(=O)c2nn(-c3ccc(OC)cc3)c(=O)c3ccccc23)cc1,3293,-3.5,-5.1,3.8,4.1,-7.2,-9.2
Cc1ccc(S(=O)(=O)N2CCOC2CNC(=O)C(=O)NCc2ccccn2)cc1 (configuration not stated),6378,11.3,2.4,2.3,0.5,-6.1,-2.5
CC1CC(=O)Nc2ccccc2N1C(=O)COc1cc(Cl)ccc1Cl (configuration not stated),2990,-7.2,-7.4,-0.7,2.3,x,-0.9
COc1ccc(C(=O)NCC(=O)OCC(=O)N2CC(C)OC(C)C2)cc1OC (configuration not stated),3692,1.5,5.7,0.4,2.3,x,-3.8
O=c1oc2cc(S(=O)(=O)NCCCO)ccc2c2ccc(S(=O)(=O)NCCCO)cc12,4294,-2.3,3.4,1.1,-0.7,-4.1,-29.5
CCC(C(=O)N1CCCC1)n1nc(C)c2c(C)n(-c3ccccc3)nc2c1=O (configuration not stated),5278,-0.9,9.9,-0.7,-0.2,4.5,-18.4

# Additional records follow:
SMILES,Autofluor counter,Mtb hypoxia rep,Mtb hypoxia rep growth,Sa RN4220 lethal,Sa ugtP lethal,BJeLR lethal,PrP UTR inh
COc1ccc(-c2cccc(C(=O)Nc3ccc(C)cc3)c2)cc1,4514,14.9,12.0,3.6,2.4,-2.7,-10.8
COc1ccccc1C(=O)Nc1c2c(nn1-c1cccc(C)c1C)CS(=O)(=O)C2,15373,4.4,5.1,6.4,-3.2,-7.0,-2.1
Cc1cc(Nc2ccc(Cl)cc2)n2ncnc2n1,3154,-0.6,9.0,5.3,3.5,-3.6,-1.4
COC(=O)c1cc(C(=O)c2ccccc2)n2c(=O)c(=CN(C)C)sc12,x,0.3,-6.3,2.4,6.5,x,x
Cc1nc(N)sc1C(=O)OCC(C)C,3332,6.1,9.9,12.0,7.7,-2.2,-0.6
CC(=O)Nc1sc(C)c(C)c1C(=O)OCC(=O)N(CCC#N)c1cc(C)cc(C)c1,5177,-9.2,-3.4,0.1,-0.2,x,-25.0
Cc1ccc(NN=C2COC(C)(C)CC2=O)cc1,x,-1.1,7.8,5.7,-1.1,x,x
CCOc1cc(C=NNC(=O)CC(=O)NCCc2ccccc2)ccc1O,x,2.6,1.3,5.3,8.1,x,x
O=C(OCC(=O)N1CCN(C(=O)c2ccco2)CC1)c1cccc(O)c1,4064,-2.1,-2.4,4.2,15.0,2.6,-6.6
Clc1ccc(SCc2cc(-c3ccccc3)no2)cc1,2776,x,x,3.9,-7.4,4.9,-42.5
CNC(=O)NC(O)C(Cl)(Cl)Cl (configuration not stated),6122,5.7,-3.6,1.8,0.5,2.2,-22.8
S=c1[nH]nc(-c2ccncc2)n1N=C/C=C/c1ccccc1,x,-11.1,-6.4,8.8,-7.7,x,x
Cc1ccc(NC(=O)N2CCCN(Cc3ccc(F)cc3)C2)cc1C,3214,16.1,5.2,-23.8,-18.4,-11.2,-25.9
Cn1c(=O)c2sccc2n2c(CCCC(=O)NCCc3ccccc3)nnc12,5614,4.6,9.8,0.0,4.8,2.8,-18.7

# Taken from the results shown (six entries):
SMILES,Autofluor counter,Mtb hypoxia rep,Mtb hypoxia rep growth,Sa RN4220 lethal,Sa ugtP lethal,BJeLR lethal,PrP UTR inh
O=C(OCC(=O)N1CCN(C(=O)c2ccco2)CC1)c1cccc(O)c1,4064,-2.1,-2.4,4.2,15.0,2.6,-6.6
Clc1ccc(SCc2cc(-c3ccccc3)no2)cc1,2776,x,x,3.9,-7.4,4.9,-42.5
CNC(=O)NC(O)C(Cl)(Cl)Cl (configuration not stated),6122,5.7,-3.6,1.8,0.5,2.2,-22.8
S=c1[nH]nc(-c2ccncc2)n1N=C/C=C/c1ccccc1,x,-11.1,-6.4,8.8,-7.7,x,x
Cc1ccc(NC(=O)N2CCCN(Cc3ccc(F)cc3)C2)cc1C,3214,16.1,5.2,-23.8,-18.4,-11.2,-25.9
Cn1c(=O)c2sccc2n2c(CCCC(=O)NCCc3ccccc3)nnc12,5614,4.6,9.8,0.0,4.8,2.8,-18.7

# High-throughput results deposited in PubChem BioAssay by several laboratories.
